Screening data as filed in PubChem.
HSD17B inhib = inhibitors of human HSD17B10 dehydrogenase | Q99714 | recombinant HSD17B10, NADH fluorescence kinetic; many of its hits are not listed in these tables | Potency, µM (series often up to 57.1 µM), for inactives: at the top dose activity change, negative = inhibition, actives largely listed as inhibitors | hit rate 7.6% among 75,000; active means well fitted inhibition curve with a large enough effect; inconclusive means small, poorly fitted or top-dose-only effect; inactive means no such curve, though single readings can be large or run the other way;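 further: the protocol describes HADH2 (HSD17B10) and not the HSD17B4 of the title; nearly all actives have a fitted effect of over 70% in size; most hits overshoot -100% by far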
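His-tagged E. coli-expressed HADH2 at 20 nM in 100 mM Tris-HCl pH 9.0 with 0.01 % Tween-20, preincubated 15 min with compound at room temperature. Reaction with 1 mM NAD+ and 90 uM beta-hydroxybutyryl coenzyme A; NADH fluorescence (360/450 nm) read kinetically over 4 min, last minus first point.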
* = called active by the depositor; ? = inconclusive; [ ] = dose if it differs, or a comment. On the % scale 0 is the no-effect control and ±100 the full control effect; potency means the concentration at half of the fitted maximal effect. A portion of the library; the hit share may differ from the screen's.

No. | structure | HSD17B inhib
1 | COC1[C@H](OC(N)=O)C(O)[C@H](Oc2ccc3c(O)c(NC(=O)c4ccc(O)c(CC=C(C)C)c4)c(=O)oc3c2C)OC1(C)C (some centres undefined) | -5.2%
2 | O=C(NCc1ccc2c(c1)OCO2)C1CC(=O)N(C2CCCCCC2)C1 (centres undefined) | -3.6%
3 | CC(C)[C@H](Sc1nc(N)nc2nc[nH]c12)C(=O)O | 6.6%[11.4 µM]
4 | CCOC(=O)c1oc2ccc(S(=O)(=O)N3CCOCC3)cc2c1C | 0.9%
5 | CC1CC(C)CN(C(=O)CSc2nnc(-c3ccc(F)cc3)o2)C1 (centres undefined) | -12.6%
6 | c1ccc(CNc2cc(-c3cccnc3)ncn2)cc1 | 25.1µM*
7 | COc1cc(C(=O)NCc2cn3ccccc3n2)cc(OC)c1OC | -20.7%
8 | CCOc1ccc(C(=O)Cc2ccc3oc(C(=O)O)cc3c2)c(O)c1 | -17.3%
9 | Cc1noc(NS(=O)(=O)c2ccc(NC(=O)CSc3ncccn3)cc2)c1C | 3.3%
10 | O=C(NCCN1CCN(C(=O)c2cc3ccccc3oc2=O)CC1)c1cc2ccccc2oc1=O | 31.6µM*
11 | COc1ccc2c(Cl)c(-c3nnc4n3CCCCC4)sc2c1 | 3.4%
12 | Cc1cc(C(=O)OCC(=O)Nc2cc(C)on2)c2ccccc2n1 | ?
13 | CC1CC(C)CN(c2ncnc3c2cnn3Cc2ccc(Cl)cc2)C1 (centres undefined) | ?
14 | CCOc1ccc(CCNC(=O)C2CCN(C(=O)N(C)C)CC2)cc1OCC | 6.1%
15 | O=C1c2ccccc2C(=O)N1CCc1nc(-c2cccnc2)no1 | 5.8%
16 | CN1CCN(C(=O)c2sc(=S)n(-c3ccccc3)c2N)CC1 | ?
17 | Cc1cc2c(c(=O)o1)[C@H](O)[C@H]1O[C@@H]1C2=O | -12.4%[11.4 µM]
18 | CC(=O)c1c(C)[nH]c(C(=O)N2CCCCCC2)c1C | 6.1%
19 | O=C(c1ccc2c(c1)OCCCO2)c1cccs1 | -6.1%
20 | O=C(NCc1ccco1)Nc1ccc2snnc2c1 | -5.3%
21 | CSc1nc(C)c2c(n1)OC(CN1C(=O)c3ccccc3C1=O)C2 (centres undefined) | 2.9%
22 | COC(=O)C1=C(C)N(CCc2ccc(OC)cc2)C(=O)C1 | 4.4%
23 | Cn1cccc1C(=O)N1CCC2(CCN(Cc3ccncc3)CC2)CC1 | 4.4%
24 | Cc1nnc(C)n1/N=C/c1cccs1 | 2.1%
25 | CC(C)(C[C@@]1(C)NC(=O)NC1=O)OCc1ccccc1 | 1.4%[11.4 µM]
26 | CCOc1ccc(C(=O)CCN2CCCCCC2)cc1 | 7.2%
27 | Cc1nn(C)c(C)c1S(=O)(=O)N(CC(=O)NCCCOC(C)C)c1ccc(C(C)C)cc1 | 2.1%
28 | COc1ccccc1-c1ccc(=O)n(CC(=O)NC(C)(C)C)n1 | 6.1%
29 | O=C(c1cccc(F)c1)N1CCC[C@@]2(CCN(c3ncccn3)C2)C1 | ?
30 | CCOC(=O)c1c(N)sc2c(OC)c(Br)ccc12 | -15.5%
31 | Cc1ccc(CNC(=O)c2cc3c(-c4ccc(Cl)cc4)nn(C)c3s2)o1 | ?
32 | O=C1CCCc2nc(NCc3ccco3)ncc21 | -8.5%
33 | O=C(Nc1cccc(-c2cn3ccsc3n2)c1)c1ccccc1 | ?
34 | O=C(COc1ccc(Cl)cc1)Nc1nnc(-c2ccc3c(c2)CCCC3)o1 | 0.7%
35 | N#Cc1c(NC(=O)CSc2nnnn2C2CCCCC2)sc2c1CCCC2 | 9.5%
36 | CC(C)(CO)Cc1cc(C(C)(C)C)c(O)c(C(C)(C)C)c1 | -16.8%
37 | C=CCn1c(COc2ccc(F)cc2)nnc1SCC(=O)NC(=O)NCc1ccco1 | -8.2%
38 | Cc1ccc(S(=O)(=O)NCc2ccco2)cc1C | 1.0%
39 | CC(C)N(Cc1nc(-c2ccc(Cl)cc2)no1)C(=O)c1cccs1 | 14.8%
40 | CCOC(=O)c1c(N)ssc1=S | ?
41 | O=C1C2C3C=CC([C@@H]2C(=O)N1c1nccs1)C31CC1 (some centres undefined) | 6.9%
42 | CCC(=O)c1cc2c(cc1NC(=O)c1cccs1)OCCO2 | ?
43 | COC(=O)c1ccc(CSc2nc3c(c(=O)n2-c2ccc(Br)cc2)SCC3)o1 | -6.8%
44 | O=C(NC1CCCCC1)c1cccc(S(=O)(=O)N2CCOCC2)c1 | 13.8%
45 | COc1ccccc1Cc1noc(COc2cccc(C)c2C)n1 | -4.4%
46 | O=S(=O)(O)c1ccc(NN(c2c(O)ccc3ccccc23)S(=O)(=O)O)cc1 | -9.4%[11.4 µM]
47 | O=S(=O)(c1cccs1)N1CCCc2ccccc21 | -0.5%
48 | COc1ccccc1-n1cnc(N)c1C(C)=O | -2.2%
49 | CC(C)(C)OC(=O)N1CCCC1C(=O)O (centres undefined) | -9.9%
50 | Cc1ccc(SCc2[nH]nc3c2C(c2ccco2)C(C#N)=C(N)O3)cc1 (centres undefined) | ?
51 | COC(=O)C1=C(C)N(C)C(C)=C(C(=O)OC)C1c1ccccn1 | -7.3%
52 | CCOc1ccc(-c2n[nH]c(C)c2Oc2ccc(OC)cc2)c(O)c1 | -25.5%
53 | CCCCCCCCCCC/C=C\C(C)(C)/C=C\CCCC(=O)O | -16.2%
54 | CN1CCN(c2nc3c(c(=O)[nH]c(=O)n3C)n2CCSc2ncccn2)CC1 | 15.5%
55 | Cc1c(NC(=O)Nc2ccc(Cl)cc2)c(=O)n(-c2ccccc2)n1C | -0.6%
56 | Cc1c(C)n(CC(O)CN2CCCCCC2)c2ccccc12 (centres undefined) | ?
57 | O=C(Oc1ccccc1)n1c(=O)oc2ccc(Cl)cc21 | 4.0%
58 | COCc1[nH]nc2c1C(c1ccsc1)C(C#N)=C(N)O2 (centres undefined) | -5.4%
59 | CC(=O)c1ccc(NC(=O)CN2C(=O)COc3ccc(Cl)cc32)cc1 | 4.5%
60 | COc1ccccc1CC(Cc1nc2ccccc2[nH]1)c1nc2ccccc2[nH]1 (centres undefined) | 7.1%

61. O=C(NCc1ccco1)N1c2ccccc2Sc2ccccc21
  HSD17B inhib = 2.2%
62. COc1ccccc1-c1nc(-c2ccncc2)no1
  HSD17B inhib = 1.2%
63. COc1ccc(C)cc1S(=O)(=O)NC1CCCC1
  HSD17B inhib = 5.2%
64. Cn1cnc2c1c(=O)[nH]c(=O)n2C
  HSD17B inhib = 6.9%
65. O=C(O)CCCNS(=O)(=O)c1ccc(Br)s1
  HSD17B inhib = -6.6%
66. CCOC(=O)N/N=C1/C[C@@H](O)[C@@H](O)[C@@H]2[C@@H]3C(=O)N(c4cccc(Oc5ccccc5)c4)C(=O)[C@H]3CC[C@H]12
  HSD17B inhib = 3.2%[11.4 µM]
67. COC(=O)c1c(NC(=O)CSc2nnnn2C)sc(C)c1C
  HSD17B inhib = -0.8%
68. CC(C)(C)C(=O)NC1CCN(S(=O)(=O)c2cccc(C(F)(F)F)c2)CC1
  HSD17B inhib = 12.1%
69. COCCNC(=O)CN1C(=O)CSc2cc(S(=O)(=O)N3CCCCCC3)ccc21
  HSD17B inhib = 1.8%
70. COc1cc(C(=O)Nc2cccc(-c3nc4cc(C)cc(C)c4o3)c2)cc(OC)c1OC
  HSD17B inhib = 3.8%
71. CCOCc1nnc(NC(=O)CSCc2ccccc2)s1
  HSD17B inhib = -8.1%
72. O=C(c1cccc(Cl)c1)N1CCN(Cc2ccncc2)CC1
  HSD17B inhib = -1.8%
73. COc1ccc2c(c1)Cc1sc(NC(=O)c3cccs3)nc1-2
  HSD17B inhib = ?
74. CNc1ncnc2ccc(-c3cccc(OC)c3)cc12
  HSD17B inhib = ?
75. CC12CC[C@@H]3c4ccc(OS(=O)(=O)O)cc4CC[C@H]3C1CCC2=O (some centres undefined)
  HSD17B inhib = 3.2%[25.6 µM]

Some of these compounds in order of count of non-hydrogen atoms, lowest first.
64. Cn1cnc2c1c(=O)[nH]c(=O)n2C
  HSD17B inhib = 6.9%
71. CCOCc1nnc(NC(=O)CSCc2ccccc2)s1
  HSD17B inhib = -8.1%
68. CC(C)(C)C(=O)NC1CCN(S(=O)(=O)c2cccc(C(F)(F)F)c2)CC1
  HSD17B inhib = 12.1%

(further entries)
76. COc1ccc(CNS(=O)(=O)c2ccc3oc(C(=O)O)c(C)c3c2)cc1
  HSD17B inhib = 4.9%
77. COC(=O)c1ccccc1COn1c(=O)c[n+]([O-])c2ccccc21
  HSD17B inhib = -24.4%
78. CCc1cc(C(=O)Cc2nc3ccccc3[nH]2)c(O)cc1O
  HSD17B inhib = 31.6µM*
79. CCCCOC(=O)CSC1=C(C#N)C(c2ccccc2OCC)C(C#N)C(=O)N1 (centres undefined)
  HSD17B inhib = 1.0%
80. CCOc1ccc(NC(=O)Nc2cc(C)on2)cc1
  HSD17B inhib = 5.8%
81. Nc1nc(Nc2ccccc2Br)nc(C(F)(F)F)n1
  HSD17B inhib = -9.3%
82. Clc1ccccc1-c1cncnc1NCc1cccs1
  HSD17B inhib = -3.2%
83. O=C(NCc1ccccc1)NS(=O)(=O)c1ccccc1Cl
  HSD17B inhib = 5.9%
84. COc1ccc(C(=O)n2nc(C)cc2C)cc1Br
  HSD17B inhib = -10.4%
85. CC1Oc2ccccc2N(CC(=O)N2CCc3ccccc32)C1=O (centres undefined)
  HSD17B inhib = 4.9%
86. COC(=O)[C@@H]1C[C@@]2(O)[C@H](O)[C@H](O)[C@H](O)C[C@H]2N1Cc1c(F)cccc1Cl
  HSD17B inhib = 7.2%
87. O=C(CN1CCOCC1)Nc1c(-c2ccccc2)c2cc(Br)ccc2[nH]c1=O
  HSD17B inhib = 2.8%
88. Cn1cnnc1SCc1ccc(C(=O)n2ncc(C#N)c2N)cc1
  HSD17B inhib = -1.5%
89. Cc1ccc(S(=O)(=O)N(CCC#N)CCN2CCCC2)cc1
  HSD17B inhib = 12.9%
90. O=S1(=O)CC(O)C(NCc2cccnc2)C1 (centres undefined)
  HSD17B inhib = -3.6%

91. O=C(NCC1CCCCC1)C1CCN(C(=O)NC2CCCCC2)CC1
  HSD17B inhib = 10.3%
92. CCOCC(=O)Nc1nc2ccc(OC)cc2s1
  HSD17B inhib = 3.4%
93. O=C(NCCN1CCCC1)c1ccc(Cn2c(=S)[nH]c3cc4c(cc3c2=O)OCO4)cc1
  HSD17B inhib = 1.8%
94. O=C(NCCN1CCN(c2ccccc2)CC1)c1cccc(Br)c1
  HSD17B inhib = 11.0%
95. COc1ccc(-n2nc3cc(C)c(NC(=O)CC(C)C)cc3n2)cc1
  HSD17B inhib = 6.31µM*
96. COc1ccc2c(c1)c1nnc(SCC(=O)N3CCCCC3C)nc1n2C (centres undefined)
  HSD17B inhib = 13.3%
97. O=C(CCCOc1ccccc1)Nc1ccc2c(c1)OCCO2
  HSD17B inhib = 27.6%
98. CCN(CCCNC(=O)CCn1c(=O)[nH]c2ccccc2c1=O)c1cccc(C)c1
  HSD17B inhib = -7.5%
99. COc1ccc(NS(=O)(=O)c2ccc(SC)cc2)cc1
  HSD17B inhib = -12.4%
100. CNC(=O)C1(CC(C)C)C=CCN1C(C)=O (centres undefined)
  HSD17B inhib = 3.3%
101. O=C(NCC(=O)N(c1ccccc1)C(C(=O)NC1CCCCC1)c1ccncc1)c1ccco1 (centres undefined)
  HSD17B inhib = 7.2%
102. COC(=O)c1ccc2c(c1)SC1=C(CCCC1=O)N2
  HSD17B inhib = ?
103. COc1ccccc1NC(=O)CN1CCC(n2nnc3cc(F)ccc32)CC1
  HSD17B inhib = 2.3%
104. C1CCC(CNc2c3c(nc4nnnn24)CCCC3)CC1
  HSD17B inhib = 6.9%
105. COC(=O)C1CCN(C(=O)c2ccc(SC)cc2OC)CC1
  HSD17B inhib = 1.8%
106. Cc1cc(Nc2ccccc2)nn1C(=O)c1ccccc1
  HSD17B inhib = -3.0%
107. N=c1ccn(Cc2ccc(Cl)c(Cl)c2)cc1
  HSD17B inhib = 4.4%
108. CCNC(=O)N1C(=O)C2(OCCO2)c2cc(Br)ccc21
  HSD17B inhib = -11.9%

Compounds listed so far that contain an aryl thioether with sulfur outside any ring, in the order listed:
3. CC(C)[C@H](Sc1nc(N)nc2nc[nH]c12)C(=O)O
  HSD17B inhib = 6.6%[11.4 µM]
5. CC1CC(C)CN(C(=O)CSc2nnc(-c3ccc(F)cc3)o2)C1 (centres undefined)
  HSD17B inhib = -12.6%
9. Cc1noc(NS(=O)(=O)c2ccc(NC(=O)CSc3ncccn3)cc2)c1C
  HSD17B inhib = 3.3%
21. CSc1nc(C)c2c(n1)OC(CN1C(=O)c3ccccc3C1=O)C2 (centres undefined)
  HSD17B inhib = 2.9%
35. N#Cc1c(NC(=O)CSc2nnnn2C2CCCCC2)sc2c1CCCC2
  HSD17B inhib = 9.5%
37. C=CCn1c(COc2ccc(F)cc2)nnc1SCC(=O)NC(=O)NCc1ccco1
  HSD17B inhib = -8.2%
43. COC(=O)c1ccc(CSc2nc3c(c(=O)n2-c2ccc(Br)cc2)SCC3)o1
  HSD17B inhib = -6.8%
50. Cc1ccc(SCc2[nH]nc3c2C(c2ccco2)C(C#N)=C(N)O3)cc1 (centres undefined)
  HSD17B inhib = ?
54. CN1CCN(c2nc3c(c(=O)[nH]c(=O)n3C)n2CCSc2ncccn2)CC1
  HSD17B inhib = 15.5%
67. COC(=O)c1c(NC(=O)CSc2nnnn2C)sc(C)c1C
  HSD17B inhib = -0.8%
88. Cn1cnnc1SCc1ccc(C(=O)n2ncc(C#N)c2N)cc1
  HSD17B inhib = -1.5%
96. COc1ccc2c(c1)c1nnc(SCC(=O)N3CCCCC3C)nc1n2C (centres undefined)
  HSD17B inhib = 13.3%
99. COc1ccc(NS(=O)(=O)c2ccc(SC)cc2)cc1
  HSD17B inhib = -12.4%
105. COC(=O)C1CCN(C(=O)c2ccc(SC)cc2OC)CC1
  HSD17B inhib = 1.8%
